Compound activity deposited in PubChem BioAssay by National Center for Advancing Translational Sciences (NCATS).
gsp ag: qHTS for Agonist of gsp, the Etiologic Mutation Responsible for Fibrous Dysplasia/McCune-Albright Syndrome: qHTS; gsp mutant cells, cAMP HTRF, 30 min; control for the full effect not named in the record; Potency, µM (highest dose often 76.9 µM), without a hit: at the top dose activation (cAMP increase), most hits filed as activators; hit rate 0.13% among 340,000; AID 624287, 2012; active = well fitted activation curve with a large enough effect; inconclusive = small, poorly fitted or top-dose-only effect, or another doubt; inactive = no such curve, though single readings can be large or run the other way; cell line not stated here;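 also: phosphodiesterase inhibitor Ro 20-1724 added with compounds to block cAMP breakdown; potency is read from the fitted curve at half-maximal effect; nearly all actives have a fitted effect of over 60% in size; about a fifth of the inactives were tested at one dose only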
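Cells in DMEM/10% FBS with G418 were pretreated with compounds in DMSO plus […] (300 uM stock) for 30 min at 37C. cAMP was measured by HTRF (cAMP-d2 plus anti-cAMP antibody-K) after 30 min at room temperature.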
Sfp inh: qHTS Assay for Inhibitors of Bacillus subtilis Sfp phosphopantetheinyl transferase (PPTase) | 4'-phosphopantetheinyl transferase ffp (Bacillus subtilis), Q9F4F7 | Biochemical Sfp PPTase activity, qHTS | Potency, µM, for inactives: max response, negative = inhibition, hits mostly inhibitors | hit rate 3.5% among 310,000 | AID 1490, 2009; active = well fitted inhibition curve with a large enough effect; inconclusive = small, poorly fitted or top-dose-only effect, or another doubt; inactive = no such curve, though single readings can be large or run the other way;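 also: the enzyme is Sfp with the accession as filed and its product quenches rhodamine fluorescence; potency is read from the fitted curve at half-maximal effect; 0% = enzyme reaction without inhibitor and -100% = no enzyme wells; top concentration of the series not given in the record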
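Fluorescence-quenching assay: 15 nM Sfp-PPTase preincubated 15 min at room temperature with compound, then 5 uM rhodamine-CoA and 12.5 uM BHQ-2-labelled YbbR peptide added. Fluorescence (ex 525/em 598 nm) read at start and after 30 min; difference gives rate.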
D2 PAM: Beta-Arrestin HTS for Positive Allosteric Modulators of the Human D2 Dopamine Receptor: Potentiators; DiscoveRx D2 beta-arrestin cells, luminescence, 90 min; 100% = 57 uM dopamine signal; potentiation, % (test concentration not listed); hit rate 0.23% among 360,000; AID 624464, 2012; active = potentiation of 50% or more; inconclusive = 30% to 50%; inactive = 30% or less;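 also: compound concentration not given in the record; tested on top of an EC20 dose of dopamine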
Target sequence (P14416 whole entry, looked up): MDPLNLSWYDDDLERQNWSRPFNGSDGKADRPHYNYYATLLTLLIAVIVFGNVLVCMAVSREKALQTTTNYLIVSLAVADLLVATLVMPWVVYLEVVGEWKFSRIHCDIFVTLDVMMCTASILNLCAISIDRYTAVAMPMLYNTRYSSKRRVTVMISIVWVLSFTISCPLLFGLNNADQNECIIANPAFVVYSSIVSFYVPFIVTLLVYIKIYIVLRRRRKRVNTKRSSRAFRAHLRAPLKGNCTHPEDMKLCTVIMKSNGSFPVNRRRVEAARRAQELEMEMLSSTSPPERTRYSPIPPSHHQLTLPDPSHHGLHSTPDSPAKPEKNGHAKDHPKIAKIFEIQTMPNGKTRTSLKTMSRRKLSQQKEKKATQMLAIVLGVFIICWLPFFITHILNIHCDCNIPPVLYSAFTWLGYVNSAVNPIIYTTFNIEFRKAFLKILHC
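PathHunter D2 cells, attached overnight at 37 deg C, received compound in DMSO plus dopamine at EC20 (50 nM final) for 90 min at 37 deg C. Beta-arrestin recruitment was read as luminescence after 1 h with detection reagent at ambient temperature.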
Menin MLL FP FL: qHTS Assay for Inhibitors Targeting the Menin-MLL Interaction in MLL Related Leukemias: Competition With Fluorescein Labeled MLL-derived Peptide. FP activity change, % at 61.4 µM. Fluorescence polarization, fluorescein-MLL peptide displacement from menin. AID 1766, 2009. 290,000 tested, under 10 active; inconclusive = falling polarisation curve, or a change in total fluorescence; inactive = total fluorescence flat and polarisation flat or rising; no compound was filed as active; the % refers to the polarisation; negative = inhibition;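 also: % of control where 0% means no effect; inhibitors lower the polarisation; unlabelled MLL peptide was the positive control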
gsp antag: qHTS for Antagonists of gsp, the Etiologic Mutation Responsible for Fibrous Dysplasia/McCune-Albright Syndrome: qHTS. AID 624288, 2012. Potency, µM (top dose mostly 76.9 µM), for inactives: at the highest dose activity change, negative = inhibition, hits mostly inhibitors. hit rate 0.4% among 340,000. gsp-mutant cells, cAMP HTRF, 30 min; control for the full effect not named in the record; active = falling curve of any shape with a large fitted effect; inconclusive = falling curve, mostly with a smaller effect; inactive = flat or rising curve; cell line not stated here;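 also: intracellular cAMP measured with PDE inhibitor Ro 20-1724 present during compound exposure; potency is read from the fitted curve at half-maximal effect; % is scaled to controls: 0 for no effect and ±100 for the full control effect; nearly all actives have a fitted effect of over 65% in size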
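G418-selected cells were plated in DMEM/10% FBS for 16-24 h at 37C, then treated with compounds plus the PDE inhibitor […] (300 uM solution added) for 30 min at 37C. Intracellular cAMP was measured by HTRF after 30 min lysis at room temperature.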
TRPV1 potentiator: HTS Assay for Compounds that Act as Potentiators of the Vanilloid Receptor 1 | Transient receptor potential cation channel subfamily V member 1 (Homo sapiens), Q8NER1 | TRPV1-expressing cells, Fluo-8 calcium influx, capsaicin EC20 potentiation; host cell line not named in the record; control for the full effect not named in the record | potentiation, % at 8.33 µM | hit rate 0.02% among 320,000 | AID 540277, 2011; active means potentiation above 80%; inconclusive means 30% to 80%; inactive means below 30%; also: 0% is about no effect
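TRPV1-expressing cells were cultured overnight at 35.5C and loaded with Fluo-8 calcium dye for 40 to 90 min at room temperature. After a 10 s baseline, compound was added and calcium influx was read kinetically for 3 min (ex 480/em 520 nm).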
ClpP mod: qHTS Assay for Activators of ClpP; purified B. subtilis ClpP, FRET peptide cleavage, 20 min; Potency, µM (top dose mostly 57.5 µM), inactives show top-dose activity change, negative = active; hit rate 1.9% among 340,000; ATP-dependent Clp protease proteolytic subunit (Bacillus subtilis (strain 168)), P80244; active = well fitted falling curve with a large enough effect; inconclusive = small, poorly fitted or top-dose-only effect; inactive = no such curve, though single readings can be large or run the other way; also: potency is read from the fitted curve at half-maximal effect; the source files actives as falling curves though it sought activators and does not explain the sign; nearly all actives have a fitted effect of over 65% in size; many hits overshoot -100%
Target sequence (P80244 whole entry, looked up): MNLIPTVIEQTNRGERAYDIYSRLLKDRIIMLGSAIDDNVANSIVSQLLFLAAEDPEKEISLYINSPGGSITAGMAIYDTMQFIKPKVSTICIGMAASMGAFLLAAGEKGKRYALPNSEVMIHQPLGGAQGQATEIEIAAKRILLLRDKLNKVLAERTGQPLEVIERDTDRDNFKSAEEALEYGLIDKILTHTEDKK
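ClpP 10 microg/mL final, pH 8 Tris/KCl buffer with BSA, glycerol, Tween-20; compound pinned in; FRET-FV substrate; RT 20 min; Ex320/Em430; ΔFRET vs ADEP 5.8 microM, DMSO, no enzyme.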
* marks the source's active call; other numbers are inactive results; ? = inconclusive; nt = not tested or not shown; [ ] = remark or other dose.

SMILES	gsp ag	Sfp inh	D2 PAM	Menin MLL FP FL	gsp antag	TRPV1 potentiator	ClpP mod
Clc1ccc(Nc2cc(-c3ccccc3)nc3ncnn23)cc1	-11%[15.4 µM]	6%	-4	7.3	-7%	6	nt
Oc1ccc(/C=N/Nc2ncnc3c2ncn3Cc2ccccc2)cc1O	21%	5%	13	nt	17%	5	-4.1%
CCCCCC(=O)Nc1ccc(S(=O)(=O)Nc2nccc(C)n2)cc1	?	18%	-5	-3.8	-10%	-3	nt
Cc1nnsc1-c1nnc(SCC(=O)c2ccc(C#N)cc2)n1C1CC1	-21%	-22%	-20	2.3	-5%	?	1.0%
CCN(Cc1ccccc1)C(=O)C(C)OC(=O)c1cc(S(=O)(=O)Nc2c(C)n(C)n(-c3ccccc3)c2=O)ccc1C (stereo unspecified)	-27%	8%	-11	-0.8	-16%	12	-0.7%
COC(=O)c1ccc(Oc2ccc3nnc(C)n3n2)cc1	27%	8%	-7	0.9	1%	0	?
O=C1CCc2cc(S(=O)(=O)NCc3ccccc3Cl)cc3c2N1CC3	-50%[inhibitor]	nt	-6	nt	-14%	4	?
CCn1cnc2cc(NCc3cccc(OC)c3O)ccc21	-27%	-6%	-7	0.7	-11%	3	32µM*
CCOC(=O)c1c2c(n(C)c1C)C(=O)C(=O)c1ccc(Br)cc1-2	0%	nt	?	nt	9%	nt	1.6%
CCOC(=O)/C(C#N)=C/c1cccn1-c1ccc(Cl)cc1	-4%[15.4 µM]	-19%	-3	-1.0	-11%	3	nt
O=C(CC(C(=O)O)C1CCCO1)Nc1cccc(C(F)(F)F)c1 (stereo unspecified)	-37%	4%	-5	3.6	8%	-2	-1.6%
COc1cc(/C=C2\SC(=S)N(CCC(=O)Nc3ccccn3)C2=O)cc(OC)c1OC	4%[15.4 µM]	25%	-3	2.2	-16%	15	?
COCCOC(=O)c1c(NC(=O)CN2CCOCC2)sc(C(N)=O)c1C	-32%[inhibitor]	19%	-17	2.1	-4%	10	0.7%
CSc1ncccc1C(=O)NC(C)CCc1ccccc1 (stereo unspecified)	-5%	1%	-11	0.2	9%	4	-0.3%
COc1ccc(-c2ccc(SCC(=O)c3ccc(F)cc3)nn2)cc1OC	-10%[15.4 µM]	14%	5	-2.8	-38%	-6	1.0%
CCc1nc(SCC(=O)Nc2ccc(OC)cc2[N+](=O)[O-])n[nH]1	-8%	6%	3	0.4	0%	9	-1.7%
COc1ccc(S(=O)(=O)NC2CCCCC2)cc1C	-67%[inhibitor]	5%	-7	0.3	-7%	-11	-2.1%
CCC(=O)N(Cc1cc2ccc(C)cc2n2nnnc12)C1CCCCC1	8%	5%	22	3.4	2%	18	-2.9%
O=C(Cn1cc([N+](=O)[O-])cn1)N1CCc2ccccc21	28%	5%	-7	2.7	0%	-1	-0.5%
CCC(CO)Oc1cc(NCc2cccc(O)c2)c2ncn(C(C)C)c2c1 (stereo unspecified)	6%	nt	20	nt	-21%	nt	2.8%
Cc1cccc(C)c1NC(=S)N=Nc1c(O)n(C)c2ccc(S(=O)(=O)N3CCOCC3)cc12	?	8%	-26	5.4	0%	5	-0.6%
O=C(NNc1cc(Cl)ccc1Cl)c1cccnc1Cl	?	13%	-6	-1.4	8%	?	nt
Cc1ccc(NC(=O)c2nc(S(=O)(=O)Cc3ccccc3)ncc2Cl)cc1	0%[15.4 µM]	?	-16	3.6	-12%	14	nt
CCc1ccc(C2=NN(c3ccc(S(N)(=O)=O)cc3)C(c3ccc(F)cc3)C2)cc1 (stereo unspecified)	4%	18%	-20	6.4	0%	13	-0.7%
Cc1ccc(C(=O)NCc2ccc3c(c2)OCO3)cc1S(=O)(=O)N1CCCCC1	-4%	20%	-3	-0.4	-1%	-10	1.0%
Cc1cccc(C(=O)NCc2nnc(SCc3ccc(F)cc3)n2C)c1	23%	15%	?	3.7	5%	11	2.6%
O=C(c1cn(-c2ccccc2)nc1-c1ccc(F)cc1)N1CCCCC1	13%	-9%	-2	0.5	-3%	-13	0.9%
COc1cc(S(=O)(=O)NCc2ccncc2)c(OC)cc1Cl	-1%[15.4 µM]	21%	-3	5.1	14%	-2	nt
COc1cc(/C=N/NC(=O)C2COc3ccccc3O2)cc(OC)c1OC (stereo unspecified)	-21%	7%	5	2.5	5%	12	-21%
Nc1nc(SCC(=O)N2CCCCC2)[nH]c(=O)c1NC(=O)c1ccccc1F	0%[15.4 µM]	5%	-10	nt	6%	-12	0.8%
CCCCNC(=O)Cc1ccc(Br)cc1	5%[15.4 µM]	0%	-21	5.3	nt	-19	nt
Fc1ccc(CSc2nnc(-c3cnccn3)n2Cc2ccco2)cc1	-9%	-16%	-4	0.7	-2%	-6	-1.8%
CCCCC(=O)Nc1nc2ccc3nc(C)sc3c2s1	23%	8%	-6	2.7	7%	-19	0.4%
COc1ccc(N2CC(NC(=O)NCC(C)C)CC2=O)cc1 (stereo unspecified)	-1%	-4%	-8	1.1	2%	-6	2.4%
O=C(NCCC1=CCCCC1)C1CCN(S(=O)(=O)c2cccc3nonc23)CC1	4%	6%	-12	-0.5	5%	4	0.9%
COc1ccc(CNC(=O)COC(=O)C2CC3C=CC2C3)cc1 (stereo unspecified)	-34%[inhibitor]	18%	-3	0.6	15%	1	-0.9%
Cc1ccc(NC(=O)C2CCN(c3cnccn3)CC2)cc1C	-1%	12%	-15	0.8	3%	-10	-4.6%
CCc1ccc(CNC(=O)CCCn2nc(C)n3ccnc3c2=O)cc1	16µM*	19%	-2	3.7	7%	-23	-0.3%
S=C(NCc1ccccc1)Nc1nccs1	5%	3%	-1	-4.5	-2%	15	nt
Cc1c(Br)c([N+](=O)[O-])nn1CCCC(=O)Nc1c(C)n(C)n(-c2ccccc2)c1=O	10%	9%	0	-1.1	-10%	?	0.2%
O=S(=O)(/N=C(/Nc1ccc(Cl)cc1Cl)c1ccccc1)c1cccs1	-40%	11%	3	-1.1	-8%	6	2.4%
Cc1occc1-c1nnc(SCC(=O)NC2CCCC2)n1C	-8%	13%	-2	-0.1	13%	-1	nt
Cc1ccc(N=C/C(C(=O)C(F)(F)F)=C(\O)c2ccco2)cc1Cl	-13%	-12%	7	?	-27%	1	16µM*
O=C(NCc1ccccn1)c1ccc(Cl)c(S(=O)(=O)Nc2ccccc2C(=O)NCc2ccccn2)c1	18%	-15%	-4	1.6	-15%	7	?
Cc1cc(C)n2nc(C(=O)OCC(=O)N3CC(C)CC(C)C3)nc2n1 (stereo unspecified)	10%[15.4 µM]	nt	-2	nt	5%	0	-0.1%
COc1cc(/C=C2\C(=O)ON=C2c2ccc(Cl)cc2)ccc1O	6%	nt	2	nt	-10%	nt	nt
COc1ccc(OC)c(/C=N/NC(=O)c2cccc3ccccc23)c1	-5%[15.4 µM]	nt	-5	nt	0%	nt	nt
O=C(COc1ccccc1)N/N=C/c1ccc([N+](=O)[O-])o1	-2%	14%	-1	5.3	0%	5	2.0%
CC(=O)CCc1ccc(OCC(O)CNC2CCCc3ccccc32)cc1 (stereo unspecified)	11%	-10%	-17	2.0	3%	1	0.3%
Cc1ccc(OCc2nc(-c3cccnc3)no2)cc1C	13%[15.4 µM]	0%	-8	0.7	10%	-3	nt
Cc1onc(-c2ccccc2Cl)c1C(=O)N1CCCCC1C (stereo unspecified)	-4%	0%	-7	nt	-4%	-1	nt
Cc1nc2sc(C(c3cccc(F)c3)N3CCCCC3)c(O)n2n1 (stereo unspecified)	16%	9%	-2	6.7	3%	-8	-1.0%
C=C[C@@H]1c2cccc(C)c2N(S(=O)(=O)c2ccc(C)cc2)[C@H](c2ccc(OC(C)=O)cc2)C1(C#N)C#N	-17%	nt	-10	nt	-13%	nt	-7.0%
O=C(C[C@H]1C/C=C\C[C@@H](NC(=O)OCC2c3ccccc3-c3ccccc32)C(=O)O[C@@H](c2ccccc2)CNC1=O)N[C@H](CO)Cc1ccccc1	-33%[inhibitor]	nt	-5	nt	-4%	nt	-0.2%
O=C(O)c1ccccc1-n1cnnn1	26%	9%	-8	9.0	1%	6	-2.0%
Cc1ccc(S(=O)(=O)NC(=O)Nc2cccc(S(=O)(=O)N(C)C)c2)cc1	4%[15.4 µM]	nt	-8	nt	5%	nt	-3.5%
CCCCCCCNC(=O)C1(CC2CC(c3ccc(Cl)cc3)=NO2)CCN(C(=O)CCCCCBr)CC1 (stereo unspecified)	-11%	-1%	-14	1.0	-12%	1	-1.0%
COc1ccc(Cl)cc1NC(=O)C12CCC(C)(C(=O)O1)C2(C)C (stereo unspecified)	-26%	15%	-10	7.5	-21%	-16	-0.4%
O=C(O)c1cccc(C(=O)O)c1	nt	17%	10	1.8	4%	11	-2.0%
O=C(NCc1ccc(N2CCCC2=O)cc1)Nc1cccc(Cl)c1	?	7%	-27	0.1	-4%	-3	-1.4%

(continued)
SMILES	gsp ag	Sfp inh	D2 PAM	Menin MLL FP FL	gsp antag	TRPV1 potentiator	ClpP mod
Cc1onc(-c2ccccc2Cl)c1C(=O)NCc1ccccc1F	-31%	3%	0	-0.3	-3%	-9	-1.1%
CS(=O)(=O)N(CCc1ccccc1)CC(=O)N1CCCCC1	-20%	8%	5	2.7	-3%	14	-3.7%
O=C(O)c1ccc(/C=N/N2CCN(Cc3ccccc3)CC2)cc1	17%	8%	-4	-0.7	-2%	-22	0.7%
Cc1cc(C)c(S(=O)(=O)Nc2ccccc2-c2ccccc2)c(C)c1	-35%[inhibitor]	-11%	-19	3.3	-31%	-14	1.0%
O=C(Nc1cc2c(cc1Cl)OCCCO2)c1ccco1	20%	13%	-24	2.0	2%	-5	0.8%
Fc1ccc(C2=Nn3c(nnc3-c3ccco3)SC2)cc1	10%[15.4 µM]	?	-15	2.3	-8%	-9	nt
